Bfl-1 A1 inh: inhibitors of the anti-apoptotic protein A1, read as caspase activation; hit rate 0.066% among 330,000; caspase activation, % (no concentration beside the values); MEF A1-2A-BIM cells, Caspase-Glo 3/7 luminescence, 3 h; percent of clofoctol response, vehicle zero; AID 2462;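 active = over half of replicate activation scores above 10%, or exactly half above 10 with the replicate mean above 10; inconclusive = replicate mean below 10 yet half the replicates above 10; inactive = over half of replicates below 10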;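 note: wells of about 30 µL received 50 nL stock; many hits fall short of the cut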
Beta apoptosis: beta cell apoptosis inhibition; hit rate 0.8% among 300,000; protection from apoptosis, % (no concentration beside the values); AID 435005; INS-1E cytokine-induced death, ATP luminescence, 48 h; percent of positive-control rescue, neutral wells zero;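 active = all replicates at 75% or more, or half of them and the mean; inconclusive = half reach 75% but not the mean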;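 note: 0% = cytokine-treated negative control wells and 100% = positive control rescue; higher means more ATP so stronger rescue from cytokine killing; wells of about 40 µL received 100 nL stock; the first replicate is given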
T cruzi repl: blocks replication of Trypanosoma cruzi; hit rate 1.4% among 300,000; T. cruzi beta-gal in NIH3T3, luminescence, 90 h; inhibition, % (concentration not given with the values);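 active = mean inhibition across valid replicates above about 55%, limit read from the data; inconclusive = mean below that limit but half or more replicates reach it; inactive = mean below it, under half of replicates reach it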;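 note: signal also drops with host cell toxicity which is not excluded here; 0% = plate median of DMSO wells and 100% = zero luminescence signal; higher percent means less beta-gal luminescence so fewer parasites; stock transfer was 50 nL into about 50 µL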
ALR inh: inhibitors of human sulfhydryl oxidase ALR; P55789; purified ALR, DTT oxidation, H2O2 HRP-luminol luminescence; inhibition, % (test concentration not listed); hit rate 3.8% among 290,000;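 active = mean and each replicate at 75% or more; inconclusive = only one of the two met; inactive = neither met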;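 note: stock transfer was 7.5 nL into about 7.5 µL; 0% = neutral wells and 100% = wells with inactivated enzyme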
LANA-H2B inh: blocks KSHV LANA binding to histone H2A/H2B | inhibition, % (no concentration beside the values) | cell-free LANA-H2A/H2B peptide, fluorescence polarization | Q9QR71 | hit rate 0.6% among 320,000; in the data active = inhibition mostly above about 10%, no sharp cut-off; inactive = mostly below about 6.7%;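 note: stock transfer was 7.5 nL into about 10 µL; 0% = median of vehicle wells and 100% = median of positive control wells; one replicate is shown; the record names a cut of 25% in any replicate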
Target sequence (Q9QR71 whole entry, looked up): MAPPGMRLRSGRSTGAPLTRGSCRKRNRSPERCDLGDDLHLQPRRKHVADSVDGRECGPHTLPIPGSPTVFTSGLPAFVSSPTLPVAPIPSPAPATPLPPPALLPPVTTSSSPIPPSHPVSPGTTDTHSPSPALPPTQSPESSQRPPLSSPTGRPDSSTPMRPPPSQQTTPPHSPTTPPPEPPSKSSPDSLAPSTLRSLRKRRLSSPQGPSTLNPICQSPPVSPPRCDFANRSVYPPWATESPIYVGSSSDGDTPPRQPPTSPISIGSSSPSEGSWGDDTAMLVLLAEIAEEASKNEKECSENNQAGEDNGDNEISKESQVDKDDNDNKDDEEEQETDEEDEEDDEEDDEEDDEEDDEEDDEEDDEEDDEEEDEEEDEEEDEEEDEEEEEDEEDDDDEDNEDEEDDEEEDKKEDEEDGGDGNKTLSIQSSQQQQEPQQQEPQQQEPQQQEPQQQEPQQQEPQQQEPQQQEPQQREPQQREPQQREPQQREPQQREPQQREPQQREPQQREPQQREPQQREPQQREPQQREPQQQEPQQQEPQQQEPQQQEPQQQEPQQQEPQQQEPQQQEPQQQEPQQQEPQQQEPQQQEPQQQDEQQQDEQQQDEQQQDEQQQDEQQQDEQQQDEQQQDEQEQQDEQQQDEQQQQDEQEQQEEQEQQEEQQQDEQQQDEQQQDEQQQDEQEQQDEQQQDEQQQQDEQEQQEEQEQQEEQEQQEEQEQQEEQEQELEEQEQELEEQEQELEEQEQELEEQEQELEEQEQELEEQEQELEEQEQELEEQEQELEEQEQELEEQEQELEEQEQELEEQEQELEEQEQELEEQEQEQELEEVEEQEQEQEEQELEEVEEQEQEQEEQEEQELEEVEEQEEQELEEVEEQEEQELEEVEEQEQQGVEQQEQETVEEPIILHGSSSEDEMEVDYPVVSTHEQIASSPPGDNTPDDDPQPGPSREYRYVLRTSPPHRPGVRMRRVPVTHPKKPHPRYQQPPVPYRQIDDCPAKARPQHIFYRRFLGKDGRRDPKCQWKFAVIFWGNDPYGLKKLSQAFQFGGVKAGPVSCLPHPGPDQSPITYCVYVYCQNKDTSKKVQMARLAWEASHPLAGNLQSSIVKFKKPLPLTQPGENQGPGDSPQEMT
Beta2AR agonist: human beta-2 adrenergic receptor agonism by FAP; hit rate 0.43% among 340,000; P07550; response, % (test concentration not listed); Am2.2-beta2AR cells, FAP receptor internalization, flow cytometry; reference of the scale not given here;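 active = response above a set limit, near 3 SD of response in nonfluorescent compounds, cut at about 42% in these data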;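 note: stock transfer was 100 nL into about 11 µL; a reference agonist was the positive control; negative values mostly stem from fluorescent compounds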
rRNA inh HTS: inhibits bacterial ribosomal RNA function over humanized ribosomes; E. coli WT GFP vs humanized-ribosome RFP mutants, fluorescence, 24 h; hits give low values; DMSO median 0, no signal -100; hit rate 1.6% among 350,000; GFP signal change (wild-type ribosome), % (concentration not given with the values);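 active = significant combined selectivity score with lowered wild-type GFP, culture density cut under 30%, mutant RFP and density less affected; inactive = any of these conditions unmet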; note: one replicate is shown; some compounds called inactive have numbers as strong as hits
Calb FLC: affects C. albicans growth with fluconazole. C. albicans CaCi-2 (fluconazole-resistant clinical isolate) + fluconazole, Alamar Blue growth, 48 h. growth inhibition, % (no concentration beside the values). hit rate 0.57% among 300,000;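 active = most replicates above 75%; inconclusive = exactly half above 75%; inactive = most below 75%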;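 note: all wells also contain fluconazole at 8 µg/ml as a sub-toxic cotreatment; 0% = median of DMSO wells and 100% = median of geldanamycin control wells; wells of about 8 µL received 7.5 nL stock; the first replicate is given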
rRNA inh HTS OD600: further read-out of rRNA inh HTS, marked with its call; OD600 change, %; measured here: OD600 growth;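 optical density of the mix in the first replicate; 0 = DMSO median and -100 = no signal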
rRNA inh HTS RFP: second read-out of rRNA inh HTS, no call of its own (marks repeat the call); RFP signal change, %; measured here: RFP humanized mutant strains;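 first replicate; 0 = DMSO median and -100 = no signal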
The depositor's hits bear a star; i = inactive; ? = inconclusive; . = no result given; & = joins results of further samples. An excerpt (hit frequency here may not be typical).

SMILES	Bfl-1 A1 inh	Beta apoptosis	T cruzi repl	ALR inh	LANA-H2B inh	Beta2AR agonist	rRNA inh HTS	rRNA inh HTS OD600	rRNA inh HTS RFP	Calb FLC
O=C(Cn1cnc([N+](=O)[O-])c1)NCCc1ccccc1	0.0	-3	-17	-4	-0.4	3	9	-8	1.7	-12
Cc1ccccc1OCC(=O)N1CCN(C(=O)COc2ccccc2C)CC1	-0.3	1	0	-16	3.7	-3	0	-11	-2.1	24
CCCN1C(=O)/C(=C/c2c(N3CCNC(=O)C3CC(=O)OCC)nc3c(C)cccn3c2=O)SC1=S (stereo not drawn)	-0.2	6	22	-1	-19	i	.	.	.	-10
C[C@H](NC(=O)c1ccccc1)C(=O)OCC(=O)c1c[nH]c2ccccc12	-0.4	-9	.	-2	-2.5	-3	-2	-6	1.9	.
COc1ccc(CNC(=O)C2COc3ccccc3O2)c(OC)c1 (stereo not drawn)	0.2	-4	-2	-15	-1.1	6	.	.	.	-4
Cn1c(SCc2nc3ccccc3[nH]2)nnc1-c1cccs1	-0.2	-8	-3	.	4.3	-20	10	14	0.8	-12
CCOc1ccc(NC(=O)c2ccc(N)cc2)cc1	-5.1	.	2	30	-1.5	-7	-5	0	-4.1	-9
Cc1c(C(=O)O)cccc1-c1ccc(/C=N/Nc2ccc(Br)cc2)o1	-1.3	5	3	100*	3.2	6	.	.	.	1
O=C(COc1ccccc1[N+](=O)[O-])NCc1cccnc1	-0.5	-5	-5	-27	1.4	-10	.	.	.	-5
CCC1Oc2ccccc2N(CC(=O)NC2CC2)C1=O (stereo not drawn)	-0.3	1	5	-1	-0.6	1	15	15	3.4	-2
O=C(O)c1ccc(/C=N/NC(=O)c2cc3c(ccc4ccccc43)o2)cc1	-0.4	-4	-9	-3	-4.4	8	4	-1	4.0	14
CCCc1ccc(OCc2nc(-c3ccc(NC(=O)c4cccs4)cc3)no2)cc1	-5.9	3	17	20	0.1	-5	.	.	.	-3
Cc1c(NS(=O)(=O)c2ccc3nc(COc4ccccc4Cl)[nH]c3c2)c(=O)n(-c2ccccc2)n1C	0.6	-1	2	99*	-0.4	-3	-16	-30	0.6	3
COc1ccc(NC(=O)c2oc3ccc(S(=O)(=O)N4CCOCC4)cc3c2C)cc1	1.2	1	22	23	-0.8	26	19	25	1.5	-9
CC(C)CC(=O)Nc1ccc(C(=O)NNC(=O)C(c2ccccc2)c2ccccc2)cc1	-1.2	-11	3	.	2.4	-4	.	.	.	-4
Cc1c(Cl)cnc(NC(=O)CSc2n[nH]c(N)n2)c1Cl	0.4	-4	.	0	-2.6	-8	14	-2	-0.9	.
O=C(NC1CCCCCC1)c1ccc(N2CCCC2=O)cc1	1.0	1	-8	.	3.1	-5	.	.	.	-28
CCOC(=O)C1CCCN(C(=O)C2CC(=O)N(c3ccc(C)cc3)C2)C1 (stereo not drawn)	-0.5	1	-3	-13	4.7	-6	4	10	2.0	9
COc1ccc(/C=C/C(=O)OC(C)CN2CCCCC2)cc1 (stereo not drawn)	0.9	2	4	-2	2.4	-4	-1	-1	-2.4	-4
COc1cc([N+](=O)[O-])cc(/C=N/NC(=O)c2cc(C)nc3ccccc23)c1O	-0.4	-3	-18	2	-0.7	16	1	2	7.2	-2
Nc1nnc(SCC(=O)OCC(=O)Nc2ccc(Br)cc2)s1	0.1	0	-17	99*	1.3	4	5	12	2.2	1
Cc1ccc(NC(=O)c2ccccc2)cc1C	-5.6	5	.	-15	-3.2	-6	-4	0	-2.3	.
COc1ccc(Cl)cc1NC(=O)c1cnccn1	-0.1	-4	-1	0	4.0	-13	3	5	-0.1	31
CCc1nc(SCC(=O)NNC(=O)c2ccc(C)cc2)c2ccccc2n1	0.3	4	-9	10	2.3	-5	3	-11	3.5	5
Cc1nc(CSc2nnc(Nc3cccc(C)c3C)s2)cs1	-0.8	-5	23	-2	-10.0	15	-15	-21	13	23
COc1cccc(/C=C/C(=C2/C(=O)N(c3ccccc3)N=C2C)c2ccc(C)cc2)c1OC	1.9	-16	3	.	2.7	7	5	7	-0.5	-18
CC(=O)N1CCSc2ccc(S(=O)(=O)Nc3cccc(C)c3)cc21	0.3	11	10	-10	0.1	7	-23*	-15*	-7.2*	43
C[C@@H]1COC(=O)[C@@H](Cc2ccc(F)cc2)C/C=C\C[C@@H](CC(=O)N(CCO)Cc2ccccc2)C(=O)N1	-0.1	4	.	1	-0.2	-15	1	12	-1.0	.
O=c1c(Oc2ccccc2)coc2cc(O)cc(O)c12	-0.3	-5	-16	0	-3.3	0	-34	-41	-14	13
O=C(CSc1nc(-c2cccs2)cc(C(F)(F)F)n1)NCc1ccco1	0.3	.	9	5	-2.8	-35	.	.	.	-12
COC(=O)c1c(C)cc(O)c(C=O)c1O	0.8	-13	-19	0	0.7	3	.	.	.	-3
COc1cc(C(=O)NC(C)c2ccc3ccccc3c2)cc(Cl)c1O (stereo not drawn)	-0.4	-8	-5	56	-2.8	-1	-15	-28	0.0	-3
CCOc1ccc(NC(=O)C/C(C)=N/NC(=O)c2cnccn2)cc1	-0.1	-7	-5	13	-3.7	1	11	9	0.5	-10
Cc1ccccc1C(=O)Oc1ccc(Br)cc1C(=S)N1CCCC1	0.0	4	16	-6	3.1	0	.	.	.	5
COc1cccc(NC(=O)C(=O)N/N=C(\C)CC(=O)Nc2ccc(NC(C)=O)cc2)c1	-0.9	-2	3	3	-12	-6	8	15	-2.2	-3
Cc1ccc(NC(=O)CSc2nnc(-c3ccccn3)n2N)c(Br)c1	0.8	-18	-1	.	-0.3	-10	.	.	.	-3
COc1ccc(C(=O)NCCCN2CCOCC2)cc1Br	-0.4	-4	19	.	-1.0	2	5	3	-2.6	0
Cc1ccc(-c2c(C#N)c(N)nc3c2CCCC3)o1	-0.6	-3	-5	-10	3.9	0	-22	-29	-3.1	27
CCN(CC)C(=O)CSc1nnc(NC(=O)CCc2ccccc2)s1	0.6	-1	-8	-1	1.7	-3	-2	1	-4.9	-3
COc1cccc(C(=O)O/N=C(\N)CS(=O)(=O)c2ccccc2)c1	1.6	-3	-15	-1	6.7	1	0	10	-1.6	9
O=C(Nc1ccc(CN2CCCCC2)cc1)c1cccc(Br)c1	-0.8	3	-19	-2	-14	7	2	-5	-1.2	-3
CSc1ccc(/C=N\NC(=O)COc2ccc(Cl)cc2Br)cc1	-0.1	7	2	-16	0.4	0	.	.	.	-10
CC(=O)NCCC(=O)N1CCCC(N2CCN(c3cccc(Cl)c3)CC2)C1 (stereo not drawn)	-1.0	.	-6	.	1.3	-5	6	11	-1.5	-6
Nc1nnnn1/N=C/c1ccc(Cl)cc1	0.0	.	-9	.	-0.3	-11	12	12	-0.5	-4
Cc1cc(C)nc(Nc2ccccc2F)n1	0.0	-1	-10	2	-3.3	11	19	8	0.6	-7
Cc1nn(-c2ccccc2)c2c1C(c1ccc(F)cc1)C(C#N)=C(N)O2 (stereo not drawn)	0.3	7	-8	.	-2.9	27	.	.	.	17
O=S(=O)(c1ccccc1)N1CCN=C1SCc1ccccc1Cl	-0.2	1	36	?	-2.9	-3	-17	-17	-2.6	?
Cc1ccccc1OCCn1ccnc1	2.2	-3	-15	-4	-1.7	-6	6	-7	-0.7	-7
COc1ccc(NC(=O)CN(C)C(=O)c2ccc(N3CCCCCC3)c([N+](=O)[O-])c2)cc1	-0.4	2	45	-61	-5.0	3	-24	-25	-0.2	0
CC(NC(=O)/C(C#N)=C/c1ccco1)c1ccccc1 (stereo not drawn)	0.5	-7	-3	4	2.7	3	4	10	10	-1

Further structures:
SMILES	Bfl-1 A1 inh	Beta apoptosis	T cruzi repl	ALR inh	LANA-H2B inh	Beta2AR agonist	rRNA inh HTS	rRNA inh HTS OD600	rRNA inh HTS RFP	Calb FLC
CCCCN(CC)C(=O)Cc1c(C(=O)O)[nH]c2ccc(Cl)cc12	-0.7	0	.	2	-6.2	6	.	.	.	12
O=C1CCCN1CC(CN1CCOCC1)Sc1nnnn1-c1ccccc1 (stereo not drawn)	0.2	-2	-12	-1	-4.4	-6&-3	4	-6	6.0	-1
CCn1cc(C(=O)NCCN(C)C)c(=O)c2cc(F)c(N3CCN(C)CC3)cc21	0.4	1	6	-31	-5.0	-1	-57	-79	-28	-4
COc1cc(CC(=O)OCC(=O)N2C(C)CCCC2C)cc(OC)c1OC (stereo not drawn)	0.5	1	-19	-5	3.5	-37	-1	4	-1.2	-4
CC(C)(Oc1ccc(Cl)cc1)C(=O)Nc1cccc(S(=O)(=O)NC2=NCCC2)c1	1.1	4	.	-2	-1.6	-1	.	.	.	.
Cc1cccn2c(=O)c(/C=C(\C#N)C(N)=O)c(N3CCN(Cc4ccc5c(c4)OCO5)CC3)nc12	0.2	4	30	.	6.2	7	.	.	.	0
Cc1c(NC(=O)CSCc2c(F)cccc2Cl)c(=O)n(-c2ccccc2)n1C	0.7	0	10	-2	-461	.	.	.	.	0
O=C(Cn1cc(S(=O)(=O)Cc2ccccc2)c2ccccc21)Nc1ccccc1	0.1	2	2	.	.	-13	.	.	.	-4
O=C(Nc1cccnc1)c1cc(-c2cccnc2)nc2ccc(Br)cc12	.	.	13	.	.	4	9	12	3.2	-1
CCN1CCCC1CNCc1cccc(OC)c1OCc1ccc(F)cc1 (stereo not drawn)	1.0	.	6	0	0.9	1	.	.	.	4
COCCNC(=O)C(=O)NNC(=O)COc1ccc(OC)cc1	-0.4	-2	1	-19	20*	9	15	10	4.1	-6
CSc1ccccc1OCc1cc(C(=O)N2CCCC(C)C2)no1 (stereo not drawn)	-3.6	7	?	-2	1.9	-1	-24	-22	4.3	3
COC(=O)CCN(C(=O)C1C2CC3CC(C2)CC1C3)c1ccccn1 (stereo not drawn)	1.8	-3	0	-9	12	0	.	.	.	-12
O=[N+]([O-])CC(=Nc1ccc(F)cc1)N/N=C\c1oc(O)c2ccccc12	-0.3	4	12	.	-0.4	.	.	.	.	14
Cc1cccc(-c2nc(CSCC(=O)N3CCN(c4ccccn4)CC3)c(C)o2)c1	0.5	-2	15	.	-1.3	-22	.	.	.	-9
CC(Oc1ccccc1F)C(=O)NNC(=O)CCNC(=O)c1ccccc1Cl (stereo not drawn)	-3.7	-7	5	-3	-4.0	-3	-2	-2	3.4	-2
O=C(CSc1nnc(-c2ccccc2O)o1)N1CCCCC1	-3.5	-3	-13	17	-3.0	-6	-7	-8	-1.2	12
Cc1cc(C)n(Cc2cccc(C(=O)N/N=C/c3cccnc3)c2)n1	.	.	4	.	.	-9	-1	8	-1.3	-16
CN(Cc1ccccc1)S(=O)(=O)c1ccc(Cl)c(C(=O)NCc2ccncc2)c1	0.6	4	-9	-4	-1.0	5	-8	-4	3.7	-8
O=S(=O)(NCc1ccc2c(c1)OCO2)c1cccc(S(=O)(=O)N2CCOCC2)c1	0.6	-2	0	23	0.1	8	.	.	.	3
COC(=O)C1CCN(S(=O)(=O)c2cc3c4c(c2)CCN4C(=O)CC3)CC1	.	.	-3	.	.	9	4	2	-0.8	-2
NC(=O)c1cc(Cl)cn(-c2ccccc2)c1=O	0.1	.	-2	-15	0.0	14	12	6	1.5	1
CCc1sc(C(=O)NCc2ccccc2)cc1C	-0.4	0	-2	.	-2.3	2	-7	-7	-3.4	-3

Assay outcomes from PubChem BioAssay.
